Sfp inh – qHTS Assay for Inhibitors of Bacillus subtilis Sfp phosphopantetheinyl transferase (PPTase) | 4'-phosphopantetheinyl transferase ffp (Bacillus subtilis), Q9F4F7 | Biochemical Sfp PPTase activity, qHTS | Potency, µM, for the others: max response, negative = inhibition, usual class: inhibitors | 3.5% of 310,000 active | AID 1490, 2009; active means well fitted inhibition curve with a large enough effect; inconclusive means small, poorly fitted or top-dose-only effect, or another doubt; inactive means no such curve, though single readings can be large or run the other way;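 further: the enzyme is Sfp with the accession as filed and its product quenches rhodamine fluorescence; potency means the concentration at half of the fitted maximal effect; 0% = enzyme reaction without inhibitor and -100% = no enzyme wells; top concentration of the series not given in the record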
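Fluorescence-quenching assay with 15 nM Sfp, 5 uM rhodamine-CoA and 12.5 uM BHQ-2-labelled ybbR peptide in pH 7.6 Hepes/MgCl2 buffer. Enzyme was pre-incubated with compound for 15 min at room temperature. Rate was taken from the 30-min fluorescence change (525/598 nm).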
ClpP mod – qHTS Assay for Activators of ClpP; ATP-dependent Clp protease proteolytic subunit (Bacillus subtilis (strain 168)), P80244; purified B. subtilis ClpP, FRET peptide cleavage, 20 min; Potency, µM (series often up to 57.5 µM), without a hit: top-dose activity change, negative = active; 1.9% of 340,000 active; active = well fitted falling curve with a large enough effect; inconclusive = small, poorly fitted or top-dose-only effect; inactive = no such curve, though single readings can be large or run the other way; further: potency means the concentration at half of the fitted maximal effect; the source files actives as falling curves though it sought activators and does not explain the sign; nearly all actives have a fitted effect of over 65% in size; many hits overshoot -100%
Target sequence (P80244 whole entry, looked up): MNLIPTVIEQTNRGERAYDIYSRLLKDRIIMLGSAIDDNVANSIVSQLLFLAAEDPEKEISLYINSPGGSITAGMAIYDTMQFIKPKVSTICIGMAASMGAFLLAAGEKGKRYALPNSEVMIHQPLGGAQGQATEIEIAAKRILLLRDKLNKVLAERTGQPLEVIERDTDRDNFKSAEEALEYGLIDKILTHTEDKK
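ClpP 10 microg/mL final, pH 8 Tris/KCl buffer with BSA, glycerol, Tween-20; compound pinned in; FRET-FV substrate; RT 20 min; Ex320/Em430; ΔFRET vs ADEP 5.8 microM, DMSO, no enzyme.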
Menin MLL FP FL – qHTS Assay for Inhibitors Targeting the Menin-MLL Interaction in MLL Related Leukemias: Competition With Fluorescein Labeled MLL-derived Peptide; Fluorescence polarization, fluorescein-MLL peptide displacement from menin; FP activity change, % at 61.4 µM; 290,000 tested, under 10 active; inconclusive = falling polarisation curve, or a change in total fluorescence; inactive = total fluorescence flat and polarisation flat or rising; no compound was filed as active; the % refers to the polarisation; negative = inhibition;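 further: % of control where 0% means no effect; inhibitors lower the polarisation; unlabelled MLL peptide was the positive control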
CtBP-E1A inh – qHTS Assay for Inhibitors of the CtBP/E1A Interaction | CtBP / adenovirus E1A interaction (AlphaScreen) | AlphaScreen GST-E1A/His-CtBP binding, 1536-well; stronger effect = lower value; control for the full effect not named in the record | activity change, % (test concentration not listed) | 0.49% of 340,000 active; in the data active means activity change below about -65%; inconclusive means about -30% to -65%; inactive means above about -30%; further: on the % scale 0 is the no-effect control and ±100 the full control effect; compound concentration not given in the record
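In 5 uL wells, 23 nL compound meets equimolar GST-E1A and His-CtBP (5X stock 125 nM each) for 2 h, 37 °C. Beads (5X, 50 ug/mL) then 1 h, 37 °C, dark.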
gsp agonist – qHTS for Agonist of gsp, the Etiologic Mutation Responsible for Fibrous Dysplasia/McCune-Albright Syndrome: qHTS; gsp mutant cells, cAMP HTRF, 30 min; control for the full effect not named in the record; Potency, µM (highest dose often 76.9 µM), without a hit: top-dose activation (cAMP increase), usual class: activators; 0.13% of 340,000 active; AID 624287, 2012; active = well fitted activation curve with a large enough effect; inconclusive = small, poorly fitted or top-dose-only effect, or another doubt; inactive = no such curve, though single readings can be large or run the other way; cell line not stated here;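 further: phosphodiesterase inhibitor Ro 20-1724 added with compounds to block cAMP breakdown; potency means the concentration at half of the fitted maximal effect; nearly all actives have a fitted effect of over 60% in size; about a fifth of the inactives were tested at one dose only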
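Cells in DMEM/10% FBS with G418 were pretreated with compounds in DMSO plus […] (300 uM stock) for 30 min at 37C. cAMP was measured by HTRF (cAMP-d2 plus anti-cAMP antibody-K) after 30 min at room temperature.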
gsp antag – qHTS for Antagonists of gsp, the Etiologic Mutation Responsible for Fibrous Dysplasia/McCune-Albright Syndrome: qHTS | Potency, µM (doses to about 76.9 µM), inactives show at the highest dose activity change, negative = inhibition, usual class: inhibitors | 0.4% of 340,000 active | gsp-mutant cells, cAMP HTRF, 30 min; control for the full effect not named in the record; active = falling curve of any shape with a large fitted effect; inconclusive = falling curve, mostly with a smaller effect; inactive = flat or rising curve; cell line not stated here;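 further: intracellular cAMP measured with PDE inhibitor Ro 20-1724 present during compound exposure; potency means the concentration at half of the fitted maximal effect; on the % scale 0 is the no-effect control and ±100 the full control effect; nearly all actives have a fitted effect of over 65% in size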
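HTRF cAMP measurement after 30 min RT detection following 30 min, 37C compound treatment alongside […] (added as 300 uM solution) in G418-selected cells seeded at 2000/well and grown 16–24 h.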
TRPV1 potentiator – HTS Assay for Compounds that Act as Potentiators of the Vanilloid Receptor 1; TRPV1-expressing cells, Fluo-8 calcium influx, capsaicin EC20 potentiation; host cell line not named in the record; control for the full effect not named in the record; Transient receptor potential cation channel subfamily V member 1 (Homo sapiens), Q8NER1; potentiation, % at 8.33 µM; 0.02% of 320,000 active; AID 540277, 2011; active means potentiation above 80%; inconclusive means 30% to 80%; inactive means below 30%; further: 0% is about no effect
Target sequence (Q8NER1 whole entry, looked up): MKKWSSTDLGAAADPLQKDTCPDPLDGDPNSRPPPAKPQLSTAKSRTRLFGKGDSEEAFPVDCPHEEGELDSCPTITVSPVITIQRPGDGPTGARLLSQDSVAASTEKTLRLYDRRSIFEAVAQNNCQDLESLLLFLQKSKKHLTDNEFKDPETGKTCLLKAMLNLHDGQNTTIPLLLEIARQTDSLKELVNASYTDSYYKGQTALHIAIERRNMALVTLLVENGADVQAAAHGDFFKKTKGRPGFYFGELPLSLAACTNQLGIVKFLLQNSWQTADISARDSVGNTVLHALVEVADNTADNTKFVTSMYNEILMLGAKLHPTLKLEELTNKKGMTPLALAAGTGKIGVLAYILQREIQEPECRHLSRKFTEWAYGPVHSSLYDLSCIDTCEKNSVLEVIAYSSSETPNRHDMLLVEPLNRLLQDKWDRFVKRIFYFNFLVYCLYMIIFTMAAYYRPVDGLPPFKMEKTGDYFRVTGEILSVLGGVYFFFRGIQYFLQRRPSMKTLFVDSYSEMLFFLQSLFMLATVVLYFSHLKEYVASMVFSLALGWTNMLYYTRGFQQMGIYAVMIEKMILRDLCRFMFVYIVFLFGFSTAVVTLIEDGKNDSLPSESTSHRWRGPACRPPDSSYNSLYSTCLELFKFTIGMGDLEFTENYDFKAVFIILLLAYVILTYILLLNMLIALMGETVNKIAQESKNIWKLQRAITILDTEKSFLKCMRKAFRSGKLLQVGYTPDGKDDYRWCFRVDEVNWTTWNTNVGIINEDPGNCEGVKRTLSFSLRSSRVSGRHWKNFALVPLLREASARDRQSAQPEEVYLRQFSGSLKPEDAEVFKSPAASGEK
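Cells expressing TRPV1 were dye-loaded with Fluo-8 and read kinetically: 10 s baseline, 3 min after compound (agonist portion), then 2 min after EC20 capsaicin (allosteric enhancer portion). Calcium-bound dye fluorescence at 480/520 nm.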
Starred values were filed as active, the others as inactive; ? = inconclusive; / = no result given; [ ] = remark or other dose.

The line under a structure holds: Sfp inh | ClpP mod | Menin MLL FP FL | CtBP-E1A inh | gsp agonist | gsp antag | TRPV1 potentiator
- COCCn1c(C)cc(C(=O)CSc2nnc(-c3cccnc3)n2-c2ccccc2F)c1C
    -1% | -3.7% | ? | -4 | ? | -14% | -13
- Clc1ccc(C2C3=C(Nc4ncnn42)c2ccccc2CC3)cc1 (centres undefined)
    -13% | / | 0.5 | / | / | / | 5
- COc1ccc(-c2sc(Nc3ccccc3)n[n+]2-c2ccc(F)cc2)c(OC)c1OC
    6% | 1.6% | 5.4 | 6 | 15% | -8% | 6
- Nn1cnnc1N/N=C/c1cc([N+](=O)[O-])c(Cl)cc1Cl
    50µM* | 0.2% | ? | -10 | -22% | -12% | -1
- C=CCn1c(SCCN2C(=O)c3ccccc3C2=O)nc2scc(-c3ccc(F)cc3)c2c1=O
    / | -0.8% | / | 5 | ? | ? | /
- CC(=O)Nc1ccc(NC(C)=C(C#N)C#N)cc1
    9% | -5.1% | 4.3 | 0 | 23% | 3% | 4
- O=C(NCc1ccncc1)C(=O)NCC(c1ccco1)N1CCN(c2ccccc2)CC1 (centres undefined)
    -2% | -0.1% | 3.0 | 5 | -23% | -26% | -8
- O=C(c1cccc(S(=O)(=O)N2CCOCC2)c1)N1CCN(c2ncccn2)CC1
    / | -23% | / | 3 | -67%[inhibitor] | / | /
- CN1C(=O)C(CCC(N)=O)NC1=S (centres undefined)
    -2% | / | 2.3 | 3 | -5%[15.4 µM] | -3% | 6
- O=C(Cc1ccc(NC(=O)C2CCCN(C(=O)C3CC3)C2)cc1)Nc1cccc(C(=O)N2CCCC2)c1 (centres undefined)
    / | 0.1% | / | 4 | / | 0% | /
- C=C(C)c1ccc(C(C)(C)NC(=O)N(Cc2ccccc2)Cc2ccco2)cc1
    2% | -1.4% | 5.7 | -14 | 7% | -6% | -17
- CN(C)c1oc(-c2ccc(Cl)cc2)nc1S(=O)(=O)c1ccccc1
    -17% | -1.7% | 0.6 | 1 | -9% | -6% | 20
- NC(=O)C1=C[C@@H](C2CCCCC2)C[C@@H](OCCCCO)O1
    -16% | -2.2% | -0.7 | 3 | / | 13% | 27
- COc1ccc(C(=O)NC2CC(C)(C)Cc3c2cnn3-c2ccccc2C)c(OC)c1OC (centres undefined)
    0% | -1.2% | / | -4 | 11%[15.4 µM] | -24% | -9
- O=c1ccc(-c2ccc(S(=O)(=O)NCc3cccc(Br)c3)s2)n[nH]1
    13% | -2.9% | -6.9 | -12 | -28% | 8% | 13
- CCOC(=O)c1[nH]c2ccc(Br)cc2c1NC(=O)CNC
    17% | -5.8% | 1.2 | 1 | ? | 4% | -3
- O=C1c2cccc3c2C2(O)c4c1cccc4C(=O)c1cccc(c12)C3=O
    / | 0.3% | / | 3 | -47%[inhibitor] | / | /
- COc1cccc(OCc2cc(C(=O)N3CCC(C(O)C(C)C)CC3)no2)c1 (centres undefined)
    8% | -2.8% | / | -11 | -46%[inhibitor] | -4% | -25
- Cc1ccc2[nH]c(O)c(N=Nc3ccccc3C)c2c1
    35µM* | / | 28 | -1 | 5% | -6% | -4
- CC(C)OCCCn1c(-c2ccco2)nc2nc3ccccc3nc21
    -16% | 18% | 12 | 6 | -1% | -3% | -6
- CC(=O)c1c(N2CCN(c3cccc(Cl)c3)CC2)nc(=S)n(-c2ccccc2)c1C
    23% | -0.4% | 4.9 | 3 | -36%[inhibitor] | -9% | 15
- COc1ccc(N2C(=O)CC(Nc3cccc(C(C)=O)c3)C2=O)cc1OC (centres undefined)
    3% | -1.1% | -1.9 | -1 | -13% | -6% | -6
- Cn1nc(C(=O)NCc2ccccc2)cc1C(=O)NCc1ccccc1
    15% | 0.6% | 0.4 | -9 | -19% | 11% | 10
- CCCCN1CC(=O)N2[C@H]3c4cc(C)ccc4OC[C@@H]3[C@H](C(=O)OCC)[C@]2(C)C1=O
    / | -7.5% | / | -20 | 27% | 3% | -3
- COc1ccc(Cl)cc1NC(=O)C(C)N1CCN(C/C=C/c2ccccc2)CC1 (centres undefined)
    ? | -2.8% | -0.7 | -12 | 21% | -6% | -1
- Cc1noc2ncnc(Oc3ccccc3)c12
    14% | 25µM* | 4.3 | 12 | 22% | 2% | -5
- CCCN(CCC)C(=O)C1CCN(c2ccc(S(=O)(=O)N3CCOCC3)cc2[N+](=O)[O-])CC1
    3% | -0.7% | / | -1 | ? | -9% | 1
- C=CCn1c(-c2cc(OC)c(OC)c(OC)c2)n[nH]c1=S
    ? | -23% | -4.3 | 0 | ? | 2% | -8
- N#CCCN1CCN(S(=O)(=O)c2ccc(S(=O)(=O)NC3CCCCC3)cc2)CC1
    9% | 1.3% | 1.6 | 4 | -54%[inhibitor] | 4% | 5
- O=C(CCSCc1ccccc1)Nc1ccc2c(c1)OCCO2
    6% | -0.8% | 1.8 | / | 30% | -14% | -13

An excerpt of these results, tab-delimited:
Molecule	Sfp inh	ClpP mod	Menin MLL FP FL	CtBP-E1A inh	gsp agonist	gsp antag	TRPV1 potentiator
O=c1ccc(-c2ccc(S(=O)(=O)NCc3cccc(Br)c3)s2)n[nH]1	13%	-2.9%	-6.9	-12	-28%	8%	13
CCOC(=O)c1[nH]c2ccc(Br)cc2c1NC(=O)CNC	17%	-5.8%	1.2	1	?	4%	-3

(continued)
The line under a structure holds: Sfp inh | ClpP mod | Menin MLL FP FL | CtBP-E1A inh | gsp agonist | gsp antag | TRPV1 potentiator
- Cc1ccc(NNC(=O)C(O)(c2cccc(C(F)(F)F)c2)c2cccc(C(F)(F)F)c2)cc1
    15% | 0.1% | 0.9 | 8 | -27% | -28% | -1
- Cn1c(=O)c2c(ncn2CC(=O)OCC(=O)Nc2ccc(Cl)cc2Cl)n(C)c1=O
    20% | / | 3.7 | 1 | ? | -5% | 11
- Cc1ccc(NC(=O)CCc2nnc3ccc(N4CCC5(CC4)OCCO5)nn23)nc1
    -4% | -0.5% | / | / | ? | 7% | -4
- Cc1csc(NC(=O)c2oc3ccccc3c2C)n1
    / | 2.1% | / | 0 | 2% | -1% | -1
- Cc1cccc(C(C)C)c1-n1nnnc1-c1ccccc1
    3% | -1.9% | 1.3 | -8 | -1% | -15% | 23
- CC1(C)CC(=O)C=C(c2cccc(O)c2)C1=O
    / | 1.0% | / | 6 | / | 4% | 0
- C=CCN1C(=O)c2ccc(C(=O)NCCc3ccc(OC)c(OC)c3)cc2C1=O
    24% | -4.0% | -0.7 | -18 | 4%[15.4 µM] | 8% | -7
- CC1=C(C(N)=O)C(c2ccccn2)n2nc(-c3ccccc3Cl)nc2N1 (centres undefined)
    -4% | -1.7% | 0.9 | -12 | -19% | 2% | 14
- Cc1nc(-c2ccc(C(=O)Nc3cc(S(N)(=O)=O)ccc3C)cc2)cs1
    4% | 0.2% | 2.9 | / | ? | -9% | -62
- CC(=O)Nc1sc2c(c1C(c1ccccn1)N1CCN(C)CC1)CCCC2 (centres undefined)
    -6% | 0.5% | -13 | -5 | 27% | 3% | -31
- COc1cc(Nc2nc3ccccc3nc2NS(=O)(=O)c2ccc([N+](=O)[O-])cc2)cc(OC)c1OC
    18% | -3.5% | -5.5 | ? | -22% | -15% | 1
- Cc1ccc(S(=O)(=O)N2CCC[C@H]2C(=O)Nc2ccccc2C)cc1
    / | / | / | 0 | ? | 11% | /
- C#CCOCCOCCOCCNc1nc(N2CCN(C(=O)Cn3cc(CCCN=C(N)N)nn3)CC2)nc(N2CCN(C(=O)[C@H]([C@@H](C)CC)n3cc(CCC(=O)O)nn3)CC2)n1
    6% | 0.4% | 0.5 | / | 22% | 4% | 11
- O=C(c1ccc(Cl)c(S(=O)(=O)N2CCCCCC2)c1)N1CCCC1
    7% | / | 1.6 | 0 | 1%[15.4 µM] | -4% | -13
- O=c1c2cccnc2[nH]c(=S)n1CCC1=CCCCC1
    14% | 2.8% | -0.5 | -6 | 13% | 1% | -9
- COc1ccc(C(=O)NC(C)c2ccc(-n3ccnc3)cc2)cc1S(=O)(=O)N1CCOCC1 (centres undefined)
    / | -5.3% | / | -17 | -65% | 5% | -14
- COc1ccc(N2C(=O)NC(=O)C2=O)cc1
    5% | / | -6.5 | 7 | 1% | 6% | -1
- O=C(Nc1cccc([N+](=O)[O-])c1)c1ccc([N+](=O)[O-])o1
    / | -1.3% | / | 14 | -4% | / | /
- N#CC1(c2ccccc2)CCC(NCCc2ccccc2)CC1 (centres undefined)
    -25% | 0.4% | -14 | / | -13% | 3% | -2
- O=C(Cn1nc(CNc2ccc(Cl)cc2)[n+]2c1CCCCC2)c1ccc(Cl)cc1
    ? | -1.2% | -0.9 | -4 | 1%[15.4 µM] | 12% | -11
- CC(=O)OCCC(C)C
    / | -4.8% | / | -19 | / | 9% | /
- CC(C)(C)c1ccc(S(=O)(=O)Nc2ccc3c(c2)COC3=O)cc1
    1% | / | -0.5 | -20 | ? | -16% | -23
- O=C(CCS(=O)(=O)c1cccs1)Nc1ccc(C(=O)NCc2ccc(F)cc2)cc1
    7% | ? | 2.9 | 3 | 3% | 1% | 2
- CCn1nnc(NC(=O)c2ccccc2Br)n1
    21% | -0.6% | 2.1 | 2 | -46%[inhibitor] | 6% | -2
- Cc1ccccc1CN1CCN(C(=O)c2ccc(F)cc2)CC1
    ? | 0.9% | -4.4 | 8 | -18% | 3% | -11
- CC1CCN(C(=O)CSc2nnc(CNc3ccc(F)cc3)n2Cc2ccco2)CC1
    -3% | -0.1% | -2.1 | 2 | 2% | -6% | -10
- CNC(=O)CS(=O)(=O)CC(=O)Nc1cc(OCCOC)c(Cl)cc1Cl
    4% | / | 2.8 | 21 | 11%[15.4 µM] | -5% | -3
